Vaccinia inh = blocks a specific stage of Vaccinia orthopoxvirus infection. Vaccinia-infected cells, mCherry/Venus stage reporter fluorescence; active compounds read low; some inactives read as strong as hits. 89,000 tested, 0.01% active. activity change (mCherry), % (test concentration not listed);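 active = mCherry past -33% and 40 or more points under the early reporter, replicates agreeing; inconclusive = past -33% without that gap or agreement; tested in A549 cells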;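 note: scaled between vehicle wells and reference inhibitor wells; 23 nL library stock went into each well; one replicate is shown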
Vaccinia inh Venus = further read-out of Vaccinia inh, marked with its call; activity change (Venus), %; measured here: Venus reporter, other viral stage;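 negative = less Venus signal; first of two replicates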
Numbers without * were called inactive.

Results for CCOC(=O)CCCCCC(=O)Nc1ccc2c(c1)C(=O)N([C@@H](C)CO)C[C@H](C)[C@H](CN(C)C(=O)NC(C)C)OCCCC[C@H](C)O2 ?
Vaccinia inh: -2.5; Vaccinia inh Venus: -3.2

What do the screens show for `Cc1noc(C)c1NC(=O)N(C)C[C@H]1Oc2c(NC(=O)Nc3ccc4c(c3)OCO4)cccc2C(=O)N([C@H](C)CO)C[C@@H]1C`?
Vaccinia inh: 10.6; Vaccinia inh Venus: 10.1

What do the screens show for `O=C(Nc1ccc2c(c1)[C@H]1C[C@@H](CC(=O)N3CCCCC3)O[C@@H](CO)[C@H]1O2)C1CCC1`?
Vaccinia inh: 7.5; Vaccinia inh Venus: 0.1

What do the screens show for `CCC(=O)Nc1ccc2c(c1)OC[C@H](C)N(Cc1ccccc1OC)C[C@H](C)[C@H](OC)CN(C)C2=O`?
Vaccinia inh: 5.7; Vaccinia inh Venus: 5.1

How did CCC(=O)Nc1ccc2c(c1)OC[C@H](C)N(C(=O)CN1CCOCC1)C[C@@H](C)[C@@H](OC)CN(C)C2=O do in these assays?
Vaccinia inh: 2.3; Vaccinia inh Venus: 3.7

How did COc1ccc(NC(=O)Nc2ccc3c(c2)C(=O)N([C@@H](C)CO)C[C@@H](C)[C@@H](CN(C)Cc2ccncc2)OCCCC[C@@H](C)O3)cc1 do in these assays?
Vaccinia inh: 14.8; Vaccinia inh Venus: 11.1

What do the screens show for `CN1CCN(C(=O)C[C@H]2C[C@@H]3c4cc(NC(=O)Nc5ccc(F)cc5)ccc4O[C@@H]3[C@@H](CO)O2)CC1`?
Vaccinia inh: 5.8; Vaccinia inh Venus: 9.8

Results for O=C(NCC[C@H]1CC[C@@H](NS(=O)(=O)c2ccc(F)cc2)[C@@H](CO)O1)Nc1ccc(Cl)cc1 ?
Vaccinia inh: -21.7; Vaccinia inh Venus: -19.6

How did C[C@H]1CN([C@@H](C)CO)C(=O)c2cccc(NC(=O)C3CC3)c2O[C@H]1CN(C)S(=O)(=O)c1ccc(Cl)cc1 do in these assays?
Vaccinia inh: -7.8; Vaccinia inh Venus: -3.7

Results for O=C(C[C@H]1C=C[C@H](NC(=O)Nc2ccccc2)[C@@H](CO)O1)NCc1cccc(F)c1 ?
Vaccinia inh: 9.8; Vaccinia inh Venus: 20.6

What do the screens show for `C[C@@H]1CCCCO[C@@H](CN(C)C(=O)NC2CCCCC2)[C@H](C)CN([C@H](C)CO)C(=O)c2cc(NC(=O)CCCN(C)C)ccc2O1`?
Vaccinia inh: 16.3; Vaccinia inh Venus: 15.0

Results for COc1ccccc1NC(=O)N[C@H]1C=C[C@@H](CC(=O)N[C@H](C)c2ccccc2)O[C@@H]1CO ?
Vaccinia inh: -14.9; Vaccinia inh Venus: -8.6

Results for CCCNC(=O)N1[C@@H]2c3ccc(-c4ccccc4OC)c(=O)n3C[C@@H]2[C@@H](CO)[C@@H]1C(=O)NC1CCC1 ?
Vaccinia inh: 4.5; Vaccinia inh Venus: 5.8

Results for CC(=O)N(C)C[C@@H]1Oc2ncc(C#Cc3ccc(F)cc3)cc2C(=O)N([C@H](C)CO)C[C@H]1C ?
Vaccinia inh: 2.3; Vaccinia inh Venus: -0.2

Results for O=C(C[C@H]1C=C[C@@H](NC(=O)Nc2ccc3c(c2)OCO3)[C@H](CO)O1)NCc1ccc(Cl)cc1 ?
Vaccinia inh: 7.2; Vaccinia inh Venus: 4.5

How did C[C@@H]1CN([C@@H](C)CO)S(=O)(=O)c2ccc(C#C[C@@H](C)O)cc2O[C@@H]1CN(C)C(=O)CN(C)C do in these assays?
Vaccinia inh: 16.2; Vaccinia inh Venus: 12.2

How did C[C@@H]1CN([C@@H](C)CO)C(=O)c2cccc(NC(=O)Nc3ccc(F)cc3)c2O[C@H]1CN(C)C(=O)NC1CCCCC1 do in these assays?
Vaccinia inh: -10.3; Vaccinia inh Venus: -6.0

What do the screens show for `OC[C@@H]1[C@H](c2ccc(/C=C/c3ccccc3)cc2)[C@H]2CN(Cc3cncnc3)CCCCN12`?
Vaccinia inh: -16.0; Vaccinia inh Venus: -4.2

How did CCC(=O)N(C)C[C@H]1Oc2ncc(C#CCC(C)C)cc2C(=O)N([C@@H](C)CO)C[C@H]1C do in these assays?
Vaccinia inh: 4.1; Vaccinia inh Venus: -3.5

What do the screens show for `O=C(C1CCC1)N1CC(=O)N2[C@H](CO)[C@@H](c3ccc(Br)cc3)[C@H]2C1`?
Vaccinia inh: 26.5; Vaccinia inh Venus: 20.1

Results for COc1ccc(NC(=O)N(C)C[C@@H]2Oc3c(NS(=O)(=O)c4ccc(OC)cc4)cccc3C(=O)N([C@@H](C)CO)C[C@H]2C)cc1 ?
Vaccinia inh: -2.4; Vaccinia inh Venus: -0.3

How did Cc1cccc(S(=O)(=O)N2C[C@H]3[C@@H](c4ccccc42)[C@H](CO)N3Cc2cccnc2)c1 do in these assays?
Vaccinia inh: -17.4; Vaccinia inh Venus: -7.0

What do the screens show for `C[C@@H]1CN([C@@H](C)CO)C(=O)c2c(c3ccccc3n2C)-c2ccccc2CO[C@H]1CN(C)C(=O)[C@H](Cc1ccccc1)N(C)C`?
Vaccinia inh: -18.3; Vaccinia inh Venus: -5.0

What do the screens show for `COc1ccc(NC(=O)Nc2ccc3c(c2)[C@H]2C[C@H](CC(=O)N[C@@H](C)c4ccccc4)O[C@@H](CO)[C@H]2O3)cc1`?
Vaccinia inh: 9.8; Vaccinia inh Venus: -1.2

How did O=C(Nc1ccccc1F)N[C@H]1CC[C@@H](CCNC(=O)C2CCCCC2)O[C@H]1CO do in these assays?
Vaccinia inh: -14.2; Vaccinia inh Venus: -4.4

How did C[C@H]1CN([C@@H](C)CO)C(=O)c2cc(C#CCN(C)C)cnc2O[C@H]1CN(C)C(=O)Nc1ccccc1F do in these assays?
Vaccinia inh: 10.7; Vaccinia inh Venus: 11.9

Results for C[C@@H]1CCCCO[C@@H](CN(C)C(=O)NC2CCCCC2)[C@@H](C)CN([C@H](C)CO)C(=O)c2cc(NC(=O)C3CCCCC3)ccc2O1 ?
Vaccinia inh: 4.2; Vaccinia inh Venus: -0.1

How did O=C(C[C@@H]1CC[C@@H](NC(=O)c2ccncc2)[C@@H](CO)O1)Nc1ccccc1 do in these assays?
Vaccinia inh: 2.2; Vaccinia inh Venus: -2.5

How did C[C@H](NC(=O)[C@@H]1[C@@H](CO)[C@@H]2Cn3c(ccc(-c4cccc(F)c4)c3=O)[C@@H]2N1C)c1ccccc1 do in these assays?
Vaccinia inh: 16.6; Vaccinia inh Venus: -2.2

Results for O=C(Cc1ccncc1)Nc1ccc2c(c1)[C@@H]1C[C@H](CC(=O)N3CCc4ccccc4C3)O[C@H](CO)[C@@H]1O2 ?
Vaccinia inh: -1.1; Vaccinia inh Venus: -4.6

How did COCC(=O)N1CCCCN2[C@H](C1)[C@H](c1ccc(-c3ccc(OC)cc3)cc1)[C@@H]2CO do in these assays?
Vaccinia inh: -10.7; Vaccinia inh Venus: -23.0

Results for CO[C@@H]1CN(C)C(=O)c2ccc(NS(C)(=O)=O)cc2OC[C@@H](C)N(S(C)(=O)=O)C[C@H]1C ?
Vaccinia inh: -2.0; Vaccinia inh Venus: -1.3

Results for CCC(=O)N(C)C[C@H]1Oc2ncc(Br)cc2C(=O)N([C@H](C)CO)C[C@H]1C ?
Vaccinia inh: 22.5; Vaccinia inh Venus: 15.9

How did O=C(C[C@@H]1CC[C@H](NC(=O)Nc2cccc(F)c2)[C@H](CO)O1)NCC1CCCCC1 do in these assays?
Vaccinia inh: -14.0; Vaccinia inh Venus: -10.6

How did COc1ccc(CN(C)C[C@H]2Oc3c(NC(=O)c4ccncc4)cccc3C(=O)N([C@H](C)CO)C[C@@H]2C)cc1 do in these assays?
Vaccinia inh: 6.5; Vaccinia inh Venus: -0.5

How did CC(C)NC(=O)Nc1ccc2c(c1)C(=O)N([C@@H](C)CO)C[C@@H](C)[C@@H](CN(C)C)O2 do in these assays?
Vaccinia inh: 5.8; Vaccinia inh Venus: -9.9

How did COc1ccccc1C#Cc1cnc2c(c1)C(=O)N([C@@H](C)CO)C[C@H](C)[C@H](CN(C)CC1CC1)O2 do in these assays?
Vaccinia inh: -3.9; Vaccinia inh Venus: -5.6

Results for CO[C@@H]1CN(C)C(=O)c2cc(NC(=O)Nc3cccc(F)c3)ccc2OC[C@@H](C)NC[C@@H]1C ?
Vaccinia inh: -21.4; Vaccinia inh Venus: -9.6

What do the screens show for `O=C(C[C@@H]1CC[C@@H](NC(=O)C2CCOCC2)[C@@H](CO)O1)Nc1nccs1`?
Vaccinia inh: 3.1; Vaccinia inh Venus: 2.7

Results for Cc1noc(C)c1NC(=O)N(C)C[C@@H]1Oc2ccc(NC(=O)Nc3ccccc3)cc2CC(=O)N([C@@H](C)CO)C[C@@H]1C ?
Vaccinia inh: -0.9; Vaccinia inh Venus: 4.0

How did Cc1ccc(S(=O)(=O)N(C)C[C@@H]2OCCCC[C@@H](C)Oc3ccc(NC(=O)Nc4ccc(F)cc4)cc3C(=O)N([C@@H](C)CO)C[C@H]2C)cc1 do in these assays?
Vaccinia inh: -1.3; Vaccinia inh Venus: 5.5

What do the screens show for `COc1ccc2c3c(n(C)c2c1)[C@H](CO)N(CC1CC1)CC31CN(S(=O)(=O)c2cccs2)C1`?
Vaccinia inh: -16.3; Vaccinia inh Venus: -11.6

How did Cc1cccc(S(=O)(=O)N2C[C@H]3[C@@H](c4ccccc42)[C@H](CO)N3CC2CCOCC2)c1 do in these assays?
Vaccinia inh: -2.9; Vaccinia inh Venus: 4.8

How did C[C@H]1CN([C@@H](C)CO)S(=O)(=O)c2ccc(C#CC3CCCC3)cc2O[C@H]1CN(C)C do in these assays?
Vaccinia inh: inconclusive

How did C[C@@H]1CN([C@@H](C)CO)C(=O)c2cccc(NC(=O)CCCCCC(=O)Nc3ccccc3N)c2O[C@H]1CN(C)C(=O)Nc1ccccc1 do in these assays?
Vaccinia inh: 18.0; Vaccinia inh Venus: 11.1

How did O=C(CN1CCOCC1)NCC[C@H]1CC[C@@H](NC(=O)Cc2ccccn2)[C@H](CO)O1 do in these assays?
Vaccinia inh: 3.3; Vaccinia inh Venus: 10.7

What do the screens show for `OC[C@@H]1[C@@H]2c3ccccc3NC[C@@H]2N1Cc1ccccc1Cl`?
Vaccinia inh: -10.8; Vaccinia inh Venus: -5.9

What do the screens show for `C[C@@H]1CN([C@H](C)CO)C(=O)c2cc(C#CC3CC3)cnc2O[C@H]1CN(C)C(=O)c1ccc(F)cc1`?
Vaccinia inh: -2.6; Vaccinia inh Venus: 0.9

What do the screens show for `C[C@H](CO)N1C[C@H](C)[C@H](CN(C)C(=O)c2ccccc2F)Oc2ncc(-c3ccncc3)cc2C1=O`?
Vaccinia inh: 1.2; Vaccinia inh Venus: -0.7

Results for C[C@H](NC(=O)C[C@H]1C[C@H]2c3cc(NC(=O)Nc4ccc(C(F)(F)F)cc4)ccc3O[C@H]2[C@H](CO)O1)c1ccccc1 ?
Vaccinia inh: -4.3; Vaccinia inh Venus: -0.5

What do the screens show for `C[C@@H]1CN([C@@H](C)CO)C(=O)Cc2cc(NC(=O)CCC(F)(F)F)ccc2O[C@H]1CN(C)Cc1ccc(C(=O)Nc2ccccc2N)cc1`?
Vaccinia inh: -14.9; Vaccinia inh Venus: -12.8

What do the screens show for `O=C(C[C@@H]1CC[C@@H]2NC[C@H](O)COC[C@H]2O1)NCc1ccc2c(c1)OCO2`?
Vaccinia inh: 9.9; Vaccinia inh Venus: 5.7

How did N#C[C@H]1[C@H](c2ccc(-c3cccc(F)c3)cc2)[C@H](CO)N1c1nc(-c2ccccc2)cs1 do in these assays?
Vaccinia inh: 0.4; Vaccinia inh Venus: 0.5

What do the screens show for `CCC(=O)N[C@H]1CC[C@@H](CC(=O)NCCN2CCCCC2)O[C@H]1CO`?
Vaccinia inh: 2.6; Vaccinia inh Venus: 4.3

What do the screens show for `C[C@H](NC(=O)C[C@H]1C=C[C@H](NC(=O)C2CC2)[C@@H](CO)O1)c1ccccc1`?
Vaccinia inh: 8.1; Vaccinia inh Venus: 8.4

How did Cc1ccc(S(=O)(=O)Nc2cccc3c2O[C@@H](CN(C)C)[C@@H](C)CN([C@H](C)CO)C3=O)cc1 do in these assays?
Vaccinia inh: -1.6; Vaccinia inh Venus: 0.6

Results for Cc1ccc(S(=O)(=O)N(C)C[C@H]2Oc3ccc(N(C)C)cc3CC(=O)N([C@@H](C)CO)C[C@@H]2C)cc1 ?
Vaccinia inh: -4.4; Vaccinia inh Venus: -10.3

Results for C#Cc1ccc([C@H]2C=C(C(=O)N3CCOCC3)O[C@@H](OCc3ccc(CO)cc3)C2)cc1 ?
Vaccinia inh: 12.4; Vaccinia inh Venus: 7.0

Results for C[C@H]1CN([C@@H](C)CO)C(=O)c2cccc(NC(=O)C3CCOCC3)c2O[C@H]1CN(C)S(C)(=O)=O ?
Vaccinia inh: 11.3; Vaccinia inh Venus: 10.1

Results for COc1cc2c(cc1OC)[C@@]13ON=C(c4ccc(OCCO)cc4)[C@@H]1CCN3CC2 ?
Vaccinia inh: 16.1; Vaccinia inh Venus: 11.3

Bioassay records (PubChem BioAssay)

Only part of the results is shown (hit frequency here may not be typical).
